# RE007 growth inh: qHTS Assay for Inhibitors of the HIV-1 protein Vpr | S. pombe RE007 Vpr strain, BacTiter-Glo ATP luminescence, 24 h; control for the full effect not named in the record | Potency, µM (highest dose often 92.2 µM), for inactives: top-dose activity change, negative = less growth | AID 651644, 2012 | hit rate 0.21% among 360,000; active = well fitted falling curve with a large enough effect; inconclusive = small, poorly fitted or top-dose-only effect; inactive = no such curve, though single readings can be large or run the other way;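 also: % is scaled to controls: 0 for no effect and ±100 for the full control effect; nearly all actives have a fitted effect of over 50% in size; the assay follows cell death caused by Vpr and the record does not say whether a fall means rescue or toxicity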
#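 Fission yeast strain RE007, carrying one chromosomally integrated HIV-1 vpr copy, was seeded at OD 0.01 in PMG+AL medium with 23 nL pinned compound. After 24 h at 30 °C and 99% humidity, viability was read by BacTiter-Glo luminescence.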
# Cruzain inh Det: qHTS Assay for Promiscuous and Specific Inhibitors of Cruzain (with detergent); Cruzipain (Trypanosoma cruzi), P25779; AID 1478, 2009; purified cruzain, Z-FR-AMC fluorescence, 0.01% Triton; Potency, µM, for the others: max response, negative = inhibition, actives largely listed as inhibitors; hit rate 0.43% among 200,000;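 also: plate controls were neutral wells for no effect and buffer without enzyme for full effect; nearly all actives have a fitted effect of over 40% in size; top concentration of the series not given in the record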
# Target sequence (P25779 123-467 limits assumed): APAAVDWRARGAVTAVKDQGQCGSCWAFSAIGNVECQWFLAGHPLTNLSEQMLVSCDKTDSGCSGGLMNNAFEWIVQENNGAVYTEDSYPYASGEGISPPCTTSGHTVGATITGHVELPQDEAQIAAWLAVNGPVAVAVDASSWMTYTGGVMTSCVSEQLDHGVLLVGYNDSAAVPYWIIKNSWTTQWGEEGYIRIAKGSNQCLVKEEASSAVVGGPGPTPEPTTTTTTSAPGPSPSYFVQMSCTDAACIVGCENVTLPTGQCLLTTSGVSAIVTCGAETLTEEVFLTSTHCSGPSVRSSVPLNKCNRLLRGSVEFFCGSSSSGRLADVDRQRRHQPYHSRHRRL
#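 Steps: dispense cruzain (1.5 nM final) in acetate buffer pH 5.5 with DTT and 0.01% Triton X-100; pin-transfer compounds; incubate 15 min RT; add Z-FR-AMC (2 uM final); read fluorescence every 30 s, using the 60 s intensity change.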
# Marburg entry inh: qHTS for inhibitors of binding or entry into cells for Marburg Virus; Marburg virus pseudotyped entry inhibition, cell reporter; control for the full effect not named in the record; about a third of the inactives were read at about 46 µM; Potency, µM (highest dose often 37.8 µM), for the others: top-dose activity change, negative = inhibition, most hits filed as inhibitors; hit rate 1.8% among 300,000; active = well fitted inhibition curve with a large enough effect; inconclusive = small, poorly fitted or top-dose-only effect, or effect the other way; inactive = flat fitted curve, though single readings scatter; tested in HEK293 cells; about a fifth of its hits are not listed in these tables; also: % is scaled to controls: 0 for no effect and ±100 for the full control effect; luciferase read-out
# Cruzain noTriton: qHTS Assay for Promiscuous and Specific Inhibitors of Cruzain (without detergent); Cruzipain (Trypanosoma cruzi), P25779; purified cruzain, Z-FR-AMC fluorescence, no detergent; Potency, µM, for inactives: max response, negative = inhibition, hits mostly inhibitors; hit rate 2.3% among 200,000; AID 1476, 2009;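 also: plate controls were enzyme without inhibitor for no effect and buffer without enzyme for full effect; nearly all actives have a fitted effect of over 40% in size; top concentration of the series not given in the record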
#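 Detergent-free condition (0.00005% Triton X-100) in acetate buffer pH 5.5 with DTT. 1.5 nM enzyme and compound were pre-mixed 15 min, then 2 uM Z-FR-AMC substrate added; reaction progress from fluorescence change between first and third reads (60 s).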
# Lassa entry inh: qHTS for Inhibitors of binding or entry into cells for Lassa Virus | Lassa virus pseudotype entry inhibition, cell reporter; control for the full effect not named in the record | Potency, µM (top dose mostly 37.9 µM), without a hit: at the highest dose activity change, negative = inhibition, hits mostly inhibitors | hit rate 1.2% among 300,000 | AID 540256, 2011; active means well fitted inhibition curve with a large enough effect; inconclusive means small, poorly fitted or top-dose-only effect, or effect the other way; inactive means flat fitted curve, though single readings scatter; tested in HEK293 cells; also: % is scaled to controls: 0 for no effect and ±100 for the full control effect; nearly all actives have a fitted effect of over 50% in size; luciferase read-out
# 2A StopGo: High Throughput Screening for Foot and Mouth Disease Virus Antivirals. human cells with a luciferase reporter of 2A StopGo recoding; control for the full effect not named in the record. Potency, µM (titrated, usually from 57.9 µM), inactives show at the top dose signal change, negative = less light. hit rate 1.2% among 410,000. AID 1159524, 2015; active = well fitted falling curve with a large enough effect; inconclusive = small, poorly fitted or top-dose-only effect; inactive = no such curve, though single readings can be large or run the other way; tested in HEK293T cells; also: % is scaled to controls: 0 for no effect and ±100 for the full control effect; nearly all actives have a fitted effect of over 45% in size; luciferase light after 4 h
# SARS PLP yeast: qHTS of Yeast-based Assay for SARS-CoV PLP | S. cerevisiae expressing SARS-CoV PLpro, growth rescue; control for the full effect not named in the record | Potency, µM (titrated, usually from 32.9 µM), without a hit: at the top dose activity, positive = growth rescue | hit rate 0.19% among 330,000; active means well fitted rising curve with a large enough effect; inconclusive means small, poorly fitted or top-dose-only effect; inactive means no such curve, though single readings can be large or run the other way; also: 0% is about no effect; nearly all actives have a fitted effect of over 55% in size; growth read by luminescence after 48 h
# NS1 function inh: qHTS Assay for Inhibitors of Influenza NS1 Protein Function; S. cerevisiae slowed by influenza A NS1, growth recovery by OD600; hit rate 0.4% among 270,000; Potency, µM (highest dose often 46.1 µM), without a hit: at the top dose activity, positive = more growth; active means well fitted rising curve with a large enough effect; inconclusive means small, poorly fitted or top-dose-only effect; inactive means no such curve, though single readings can be large or run the other way; also: nearly all actives have a fitted effect of over 50% in size
#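 Read-out: OD600 growth recovery of NS1-expressing budding yeast. Cells grown overnight at 30C in -URA glucose medium, washed, resuspended and diluted 1:100 in 2% galactose assay medium, pH 6.0. Same strain lacking NS1 served as positive control.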
# The depositor's hits bear a star; ? = inconclusive; / = not tested or not shown; & = joins results of further samples; [ ] = remark or other dose. Unless noted, calls follow the shape of the dose curve; as a rule, active = well fitted curve in the direction sought with a large enough effect; inconclusive = small, poorly fitted or top-dose-only effect, or another doubt; inactive = no such curve, though single readings can be large; an effect the other way counts as inactive or inconclusive. Potency is read from the fitted curve at half-maximal effect.
SMILES,RE007 growth inh,Cruzain inh Det,Marburg entry inh,Cruzain noTriton,Lassa entry inh,2A StopGo,SARS PLP yeast,NS1 function inh
CCN(C(=S)NC(=O)CCc1ccccc1)c1ccccc1,-11%,0.2%,-12%,8%,2%,-4%,-3%,3%
CCOC(=O)Cn1c(=O)oc2cc(S(=O)(=O)N3CCN(c4ccc(C(C)=O)cc4)CC3)ccc21,/,3.5%,?,11%,3%[46.1 µM],-8%,/,/
Cc1cc(C)cc(N2CC(C)Cn3c2nc2c3c(=O)[nH]c(=O)n2C)c1 (stereo not drawn),1%,/,/,/,/,-16%,0%,8%
Cc1csc(NC(=O)C(Cc2ccccc2)n2cccc2)n1 (stereo not drawn),-13%,-4.2%,15%,-9%,-19%,-13%,-15%,-50%
Cc1cc(C(=O)N2CCCC(N3CCN(c4cccc(Cl)c4)CC3)C2)n(C)n1 (stereo not drawn),-2%,/,-7%,/,?,-29%,1%,-9%
O=C(Cn1nnc(-c2ccccc2)n1)N/N=C/c1cc([N+](=O)[O-])ccc1O,21%,-8.3%,3%,-4%,3%,3%,?,12%
CC(Sc1nnnn1-c1ccc(O)cc1)c1nc2ccccc2c(=O)[nH]1 (stereo not drawn),8%,/,26%[46.1 µM],/,?,-7%,-1%,-3%
COc1cccc(C(=O)Nc2cccc(C(=O)N3CCOCC3)c2)c1,14%,-2.7%,?,5%,2%,19%,4%,-3%
Cc1ccc(S(=O)(=O)N2CCCC2C(=O)Nc2ccc(O)cc2)cc1 (stereo not drawn),14%,1.2%,0%,3%,-14%,-6%,-19%,5%
COc1cccc(C(=O)Nc2cc(Cl)c(O)c(Cl)c2)c1,6%,/,/,/,/,10%,-1%,-47%
COc1ccc(NC(=O)n2nc(OC(=O)c3cccs3)cc2N)cc1,15%,/,/,/,/,54%[activator],-3%,-5%
CCOC(=O)CSc1ccc2nnc(-c3cccnc3)n2n1,-6%,4.2%,/,-5%,/,-9%,-4%,3%
COC(=O)c1nc2n(n1)C(c1cc(OC)ccc1OC)C=C(c1ccc(Br)cc1)N2 (stereo not drawn),/,-5.3%,/,?,-18%[46.1 µM],-26%,/,/
CCn1cc(C2C3=C(CC(C)(C)CC3=O)N(c3ccccc3)C3=C2C(=O)CC(C)(C)C3)c(C)n1,14%,-0.4%,8%,16%,11%,-12%,17%,-5%
Cc1cccc(N=N/C(=C\O)C(=O)c2ccc(Br)cc2)c1,?,/,7.9µM*,/,5.6µM*,-13%,-8%,/
Cc1c(Cl)cccc1NC(=O)CC(c1cccs1)N1Cc2ccccc2C1=O (stereo not drawn),/,-4.4%,/,-4%,-1%[46.1 µM],-1%,/,/
O=C(c1ccc([N+](=O)[O-])cc1)N(Cc1ccc(Cl)cc1)N1C(=O)CCCC1=O,-3%,6.3%,10%,2%,-5%,-2%,17%,-5%
O=C(O)/C=C/C(=O)Nc1ccc2nccnc2c1,-12%,/,23%[46.1 µM],/,9%,45%[activator],-1%,-5%
Cc1nn(CCCC(=O)NC(C)c2ccccc2)c(=O)c2nn(-c3ccccc3)c(C)c12 (stereo not drawn),5%,/,/,/,/,-17%,-2%,-10%
COc1ccc(CN(C(=S)Nc2ccccc2)C2CC(=O)N(c3ccc(F)cc3)C2=O)cc1 (stereo not drawn),0%,2.0%,?,-5%,-11%,5%,10%,16%
COc1ccc(NC(=O)c2ccc(Cl)nc2)cc1S(=O)(=O)N1CCCCC1,7%,/,?,/,-17%,?,-1%,2%
COc1ccc2c(c1)C(NC(C)=O)C(=O)N2C (stereo not drawn),0%,13%,-2%,3%,9%,4%,3%,3%
O=C(Nc1ccccc1)Nc1nc(-c2ccc(F)c(F)c2)cs1,-2%,/,-8%,/,0%,-23%,-1%,0%
CC1CCN(S(=O)(=O)c2ccc(C(=O)Nc3nnc(-c4ccccn4)o3)cc2)CC1,-5%,/,?,/,-7%[46.1 µM],1%,-1%,/
Cc1ccc2nc(NC(=O)c3ccc(S(=O)(=O)N4CCC(C)CC4)cc3)sc2c1,/,2.6%,/,-11%,0%[46.1 µM],-22%,/,/

# The list continues.
SMILES,RE007 growth inh,Cruzain inh Det,Marburg entry inh,Cruzain noTriton,Lassa entry inh,2A StopGo,SARS PLP yeast,NS1 function inh
COc1cc(C2C(C#N)=C(N)N(c3cccnc3)C3=C2C(=O)CCC3)ccc1O (stereo not drawn),3%,-2.4%,1%,-12%,1%,/,-6%,21%
COc1cc(NC(=O)CSc2nccc(=O)[nH]2)c(C)cc1[N+](=O)[O-],4%,/,8%[46.1 µM],/,18%,29%,0%,1%
COC(CNC(=O)c1ccc2c(=O)n(Cc3ccc(Cl)cc3)c(=S)[nH]c2c1)OC,3%,/,/,/,/,-3%,0%,4%
CCOC(=O)c1cccc(NC(=O)CCS(=O)(=O)c2ccc(Br)s2)c1,11%,-3.7%&-7.7%,5%&-2%[46.1 µM],-14%&-12%,0%[46.1 µM],21%&-5%,25%,3%
CCOC(=O)c1c(N=CN(C)C)c(C#N)c2n1CCCC2,-2%,-1.2%,-3%,-16%,15%,-15%,6%,1%
Cc1cccc(NC(=O)c2oc3ccccc3c2NC(=O)Cc2coc3c(C)c(C)ccc23)c1,/,-2.2%,22%[46.1 µM],-10%,-4%[46.1 µM],2%,/,/
CC(C(=O)O)c1n[nH]c(=O)c2ccccc12 (stereo not drawn),12%,5.4%,1%,-14%,2%,41%[activator],6%[6.58 µM],1%
COc1cc(/C=C/c2nc3cc(Cl)ccc3c(=O)n2-c2ccc(C)cc2C)cc(OC)c1OC,/,-0.1%,/,-2%,18%[46.1 µM],-14%,/,/
COc1cccc(NC(=O)c2ccccc2N2C(=O)C3C4C=CC(C5CC45)C3C2=O)c1 (stereo not drawn),-1%,/,/,/,/,?,5%,5%
CCc1ccc(NC(=S)N(CCN2CCCCC2)Cc2ccco2)cc1,-8%,-1.2%,?,-4%,?,12%,-11%,-6%
O=C(O)/C=C/C(=O)N1CCN(c2cccc(Cl)c2)CC1,-3%,/,/,/,/,-11%,20%,-2%
Cc1cc(C)c(S(=O)(=O)N2CCCC2)c(C)c1,-17%,/,-6%[46.1 µM],/,1%[46.1 µM],-23%,6%,-6%
CCOC(=O)c1noc2ncnc(N3CCN(c4cccc(C(F)(F)F)c4)CC3)c12,/,-9.3%,/,?,-11%[46.1 µM],?,/,/
CC(C)c1ccc(NC(=O)COC(=O)C2=COCCO2)cc1,-1%,-0.8%,20%,16%,9%,33%[activator],-14%,-68%
CNC(=O)O/N=C(\C)Cc1nnn(-c2cc(C)on2)n1,0%,/,19%[46.1 µM],/,?,6%,0%,2%
O=C(c1ccccc1)[C@@H]1[C@@H](C(=O)c2ccc(F)cc2)[C@@]2(C(=O)Nc3ccccc32)[C@H]2c3ccccc3C=CN12,-21%,-9.0%,-15%,?,-20%,74%[activator],20%,27%
CCN(CC(=O)Nc1ccc(NC(C)=O)cc1)Cc1c(O)ccc2cc(Br)ccc12,-9%,/,15%[46.1 µM],/,-6%,2%,-15%,14%
COc1cccc(CNC(=O)N2CCN(c3ccccc3C)CC2)c1,2%,/,13%[46.1 µM],/,?,25%,-2%,-23%
CC1CN(C(=O)COC(=O)c2cc(Cl)ccc2Cl)CC(C)O1 (stereo not drawn),-6%,/,?,/,-12%,3%,0%,/
COc1cccc(CN2CC=C(c3ccc(F)cc3)CC2)c1,-16%,/,-19%,/,-2%,-14%,-6%,9%
COc1ccc2cc(C(=O)NCCCN3CCCC3=O)[nH]c2c1,4%,/,/,/,/,27%,3%,-8%
COc1ccc(-c2cc(=O)c3ccccc3o2)cc1,-12%,15%,/,15%,/,26%&53%,-2%,-40%
COc1cccc2cc(-c3nc4ccccc4o3)c(=O)oc12,-5%,/,1%[46.1 µM],/,?,10%,-3%,/
O=C(COc1ccc2c(c1)oc(=O)c1ccccc12)NCCCN1CCOCC1,-9%,/,/,/,/,5%,0%,-1%
COc1ccc(CN(C(=O)CSc2nnc(-c3c[nH]c4ccccc34)o2)c2ccc(F)cc2)cc1OC,-17%,-4.2%,?,21%,7.1µM*,?,10%,28%

# More results follow.
SMILES,RE007 growth inh,Cruzain inh Det,Marburg entry inh,Cruzain noTriton,Lassa entry inh,2A StopGo,SARS PLP yeast,NS1 function inh
NS(=O)(=O)c1ccc(CCNC(=O)CNS(=O)(=O)c2cccc(Br)c2)cc1,-12%,/,6%,/,-11%,2%,0%,12%
O=C(NCC(=O)N1CCN(c2ccccn2)CC1)c1ccc(Br)o1,15%,/,-3%[46.1 µM],/,15%[46.1 µM],23%,1%,-6%
COc1ccc(C2C(C#N)=C(SCC(=O)Nc3ccc(C)cc3)NC3=C2C(=O)CC(C)(C)C3)cc1 (stereo not drawn),0%,-6.6%,?,-5%,?,0%,8%,18%
COc1ccc(NC(=O)C2CCCN(S(=O)(=O)c3ccc(Br)s3)C2)cc1 (stereo not drawn),/,-3.2%,-25%[46.1 µM],-2%,-4%[46.1 µM],-19%,/,/
CCOc1ccc(C2C(=O)N(C3CCCCC3)CC(=O)N2Cc2ccccc2OC)cc1OC (stereo not drawn),/,0.1%,/,27%,-13%[46.1 µM],-2%,/,/
Cc1ccc(-n2nc(C(=O)N3CCN(c4cc(C)ccc4C)CC3)c3c4ccccc4n(C)c3c2=O)cc1,/,-0.4%,-1%[46.1 µM],0%,2%[46.1 µM],0%,/,/
CCn1c(SCC(=O)Nc2cc(C)on2)nc2c([nH]c3ccccc32)c1=O,2%,/,15%,/,-20%,-3%,9%,25%
O=c1[nH]n(Cc2ccccc2)c2ccccc12,14%,/,12%[46.1 µM],/,14%[46.1 µM],-7%,-1%,4%
O=C(Nc1ccccc1-c1nc2ccccc2s1)c1ccc(F)cc1,/,0.5%,3%[46.1 µM],-3%,?,-14%,/,/
C/C(=N\NC(=S)NC1CCCCC1)c1cccc(C(F)(F)F)c1,-9%,/,/,/,/,-17%,-2%,-2%
